CtBP-E1A inh = inhibitors of CtBP/E1A interaction; AlphaScreen GST-E1A/His-CtBP binding, 1536-well; hits give low values; control for the full effect not named in the record; activity change, % (concentration not given with the values); hit rate 0.49% among 340,000; AID 651724; in the data active means activity change below about -65%; inconclusive means about -30% to -65%; inactive means above about -30%; further: on the % scale 0 is the no-effect control and ±100 the full control effect
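In 5 uL wells, 23 nL compound meets equimolar GST-E1A and His-CtBP (5X stock 125 nM each) for 2 h, 37 °C. Beads (5X, 50 ug/mL) then 1 h, 37 °C, dark.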
Six1-Eya2 inh = Six1/Eya2 interaction inhibition. activity change, % (concentration not given with the values). hit rate 0.56% among 360,000. AID 651725. AlphaScreen GST-Six1/His-Eya2 binding, biochemical; hits give low values; control for the full effect not named in the record. Q15475+O00167; in the data active = activity change below about -65%; inconclusive = about -30% to -65%; inactive = above about -30%; further: on the % scale 0 is the no-effect control and ±100 the full control effect
Target sequence (O00167 whole entry, looked up): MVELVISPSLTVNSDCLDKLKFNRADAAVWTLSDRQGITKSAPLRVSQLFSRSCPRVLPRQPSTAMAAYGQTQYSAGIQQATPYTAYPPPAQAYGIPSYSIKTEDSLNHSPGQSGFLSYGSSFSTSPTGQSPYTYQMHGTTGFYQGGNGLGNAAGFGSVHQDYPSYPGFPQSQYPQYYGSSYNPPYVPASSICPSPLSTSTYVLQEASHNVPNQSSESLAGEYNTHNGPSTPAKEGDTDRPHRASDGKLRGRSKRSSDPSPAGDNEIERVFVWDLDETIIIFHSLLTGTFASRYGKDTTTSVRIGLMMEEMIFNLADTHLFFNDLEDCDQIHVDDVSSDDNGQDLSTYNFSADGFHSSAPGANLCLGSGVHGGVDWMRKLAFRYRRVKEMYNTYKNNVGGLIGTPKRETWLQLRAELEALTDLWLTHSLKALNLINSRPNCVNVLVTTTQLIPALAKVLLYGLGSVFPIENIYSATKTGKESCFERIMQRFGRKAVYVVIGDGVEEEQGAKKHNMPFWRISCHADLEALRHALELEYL
Target sequence (Q15475 whole entry, looked up): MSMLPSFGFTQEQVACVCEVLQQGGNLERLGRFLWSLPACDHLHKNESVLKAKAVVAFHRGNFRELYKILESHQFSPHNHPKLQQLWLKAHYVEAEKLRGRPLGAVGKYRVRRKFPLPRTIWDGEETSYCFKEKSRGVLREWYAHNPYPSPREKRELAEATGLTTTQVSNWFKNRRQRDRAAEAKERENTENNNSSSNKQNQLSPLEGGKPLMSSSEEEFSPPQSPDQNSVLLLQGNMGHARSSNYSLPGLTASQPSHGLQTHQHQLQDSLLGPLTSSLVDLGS
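Homogeneous AlphaScreen proximity assay pairing GST-Six1 with His-tagged Eya2 (added as 5X mix: 250 nM and 500 nM) in 50 mM Tris pH 8.0, 300 mM NaCl, 1 mM TCEP. Glutathione donor and nickel acceptor beads; 1 h, 37 °C, dark.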
TRPV1 potentiator = enhances activation of the human vanilloid receptor TRPV1. TRPV1-expressing cells, Fluo-8 calcium influx, capsaicin EC20 potentiation; host cell line not named in the record; control for the full effect not named in the record. hit rate 0.02% among 320,000. potentiation, % at 8.33 µM. AID 540277. Q8NER1; active means potentiation above 80%; inconclusive means 30% to 80%; inactive means below 30%; further: 0% is about no effect
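Fluo-8 calcium influx in TRPV1-expressing cells, kinetic read (ex 480/em 520 nm). Compound added and read 3 min for agonist activity, followed by capsaicin at EC20 final and 2 min further read for enhancement.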
TRPML1 agonist = human mucolipin-1 channel agonism. Q9GZU1. TRPML1-expressing cells, Ca2+ dye fluorescence, FDSS; host cell line not named in the record; reference of the full effect not given here. activation, % (no concentration beside the values). hit rate 0.12% among 410,000; in the data active = activation above about 50%; inconclusive = about 30% to 50%; inactive = below about 30%; further: 0% is about no effect; the text of the record puts the active cut at 80%
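Cells: TRPML1-DL, 1X Tet inducer, ~16 h at 37 degrees C/5% CO2. Dye: ABD Ca8 no-wash + quencher, 45-90 min RT. Read: 10 s baseline, compound add, 110 s agonist phase; 54-4 EC80 (4uM final), 110 s antagonist phase.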
D2 potentiator = potentiates the human D2 dopamine receptor allosterically; P14416; DiscoveRx D2 beta-arrestin cells, luminescence, 90 min; 100% = 57 uM dopamine signal; potentiation, % (concentration not given with the values); hit rate 0.23% among 360,000; AID 624464; active = potentiation of 50% or more; inconclusive = 30% to 50%; inactive = 30% or less;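 further: compound concentration not given in the record; tested on top of an EC20 dose of dopamine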
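PathHunter D2 cells, attached overnight at 37 deg C, received compound in DMSO plus dopamine at EC20 (50 nM final) for 90 min at 37 deg C. Beta-arrestin recruitment was read as luminescence after 1 h with detection reagent at ambient temperature.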
TRPML1 inh = human mucolipin-1 channel inhibition. TRPML1-inducible cells, Ca2+ dye fluorescence, FDSS; hits give low values; inhibition of EC80 agonist-evoked calcium signal. activity change, negative = inhibition, % (concentration not given with the values). hit rate 0.02% among 390,000. AID 624415; in the data active means activity change below about -50%; inconclusive means about -30% to -50%; inactive means above about -30%;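 further: stimulus is agonist 54-4 at its EC80 concentration; on the % scale 0 is the no-effect control and ±100 the full control effect; compound concentration not given in the record; the text of the record puts the active cut at -80%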
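TRPML1-DL cells, Tet-induced overnight (~16 h, 37 °C) at 1,500 cells/well, were loaded with Ca8 no-wash dye plus quencher for 45-90 min at room temperature. Compounds were pinned during FDSS kinetic reading; agonist 54-4 at EC80 (4 uM final) then added.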
* hit, by the source's call; u = inconclusive; x = no result given.

SMILES | CtBP-E1A inh | Six1-Eya2 inh | TRPV1 potentiator | TRPML1 agonist | D2 potentiator | TRPML1 inh
O=C(O)c1ccc(C(=O)c2ccc3c(c2)C(=O)N(CCO)C3=O)cc1 | 9 | -6 | -6 | 0.1 | -3 | -10
Cc1ccc(COc2cccc(/C=N/NC(=O)c3nnn(-c4nonc4N)c3C)c2)cc1 | x | 3 | 12 | 1.1 | -5 | 25
Cc1ccccc1-c1nc(CS(=O)(=O)CC(=O)NCCCN2CCCC2=O)c(C)o1 | 4 | 14 | 13 | 0.3 | -2 | -6
CCOC(=O)N1CCC(Nc2c(OCC)c(=O)c2=O)CC1 | 1 | 8 | x | -0.4 | -1 | -10
CSc1cnn(CCC#N)c(=O)n1 | 10 | 7 | x | -0.2 | x | x
Cc1ccc(C)c(Cn2c(O)c(N=NC(=S)Nc3ccccc3F)c3ccccc32)c1 | x | -7 | 7 | -0.2 | -13 | 18
CCc1nc(-c2ccc(-c3ccc(OC)cc3)nc2OC)no1 | 12 | 12 | 10 | 0.8 | -5 | 43
CCCOc1cccc(C(=O)NCCNC(=O)c2ccco2)c1 | -12 | -2 | 2 | -0.9 | 1 | -8
Cn1cccc1C(=O)C(=O)Nc1cc(Cl)cc(Cl)c1 | -1 | -6 | 5 | 1.7 | -4 | -11
COc1ccc(NC(=O)c2cc(C3CCCCN3S(=O)(=O)c3ccc(C#N)cc3)on2)c(C)c1 (configuration not stated) | 0 | 5 | x | 1.4 | 5 | 44
O=C(CSc1nnc(CNC(=O)c2ccc(F)cc2)o1)Nc1nccs1 | -87* | -88* | -7 | -0.3 | -1 | -17
C=CCNc1c2c(nc3nnnn13)CCCC2 | 1 | -2 | -2 | 0.7 | -3 | 5
O=C(Nc1cccc(S(=O)(=O)N2CCCC2)c1)c1cccc(S(=O)(=O)N2CCOCC2)c1 | x | -9 | -17 | -0.6 | -3 | 20
C/C(Cl)=C/CN1C(=O)C2C3C=CC(C3)C2C1=O (configuration not stated) | -1 | 6 | 11 | -0.2 | 2 | -2
O=C(NCc1ccccn1)C(=O)NN=C1CCCCCCC1 | -8 | 7 | -5 | 0.4 | -10 | -11
CC1CCCN(C(=O)c2ccc(-c3ccccc3Cl)o2)C1 (configuration not stated) | 13 | -13 | -15 | 1.1 | -7 | 20
O=C(c1ccc(CSc2ccccc2)cc1)N1CCCCCC1 | -7 | 8 | -4 | 0.1 | -9 | u
Cc1ccc(S(=O)(=O)NCc2ccccc2)cc1C(=O)NCc1ccccn1 | 7 | 18 | 13 | -0.1 | -11 | -11
O=S(=O)(c1ccccc1F)N1CCN(C(=S)NCc2ccccc2)CC1 | -7 | 1 | -15 | -0.9 | -9 | -19
Cc1cc(C)n(/N=C/c2c[nH]c3ccccc23)c(=O)c1C#N | 10 | -2 | 3 | -0.1 | -2 | 1
CC[C@H](C)Cc1cn([C@@H](CCCCNC(=O)OC(C)(C)C)C(=O)NCCCCCCCCCCC(=O)N2CCN(C(=O)OC(C)(C)C)CC2)nn1 | 1 | -1 | u | 0.6 | -4 | 1
COc1ccc(C(=O)N(CN2CCCC2=O)c2ccc(C)cc2)cc1 | -1 | 6 | -3 | 2.1 | -2 | 13
CC(C)c1cccc(-c2ccc3c(c2)S(=O)(=O)c2cccc(C(=O)O)c2C3=O)c1 | -12 | -10 | 8 | 0.4 | -14 | -20
CN(C)CCNc1ccc(Cl)cc1[N+](=O)[O-] | -1 | -6 | -1 | 0.3 | -43 | 7
Cc1ccccc1-c1nn(-c2ccc(F)cc2F)cc1CNCC(C)O (configuration not stated) | x | -1 | -13 | 0.8 | -10 | -16
O=C1C(Cc2c[nH]c3ccccc23)NC(=S)N1C1CCCCC1 (configuration not stated) | 1 | -24 | 13 | 0.7 | -1 | 14
COc1ccccc1NC(=O)COC(=O)C12CC3CC(CC(Br)(C3)C1)C2 | 11 | 2 | x | 1.5 | -1 | 57
O=S(=O)(Nc1cccc(S(=O)(=O)N2CCCC2)c1)c1ccccc1F | 4 | 5 | x | -0.1 | -12 | 5
O=C(NCCCN1CCCC1=O)c1cccnc1 | 2 | 5 | 16 | 0.9 | 2 | 0
CC(C)(C)NC(=O)CN(C(=O)CNC(=O)c1cccs1)c1ccccc1F | 12 | 1 | 5 | -0.1 | -23 | -6
COc1cc(/C=N/NC(=O)c2ccc([N+](=O)[O-])cc2Cl)cc(Br)c1O | 10 | 1 | -20 | -0.9 | 27 | -14
N#Cc1cc(-c2ccccc2)cn(Cc2c(Cl)cccc2Cl)c1=O | 6 | 1 | 6 | 1.1 | -8 | -6
COc1ccc(C)cc1S(=O)(=O)NCc1cccs1 | 13 | -1 | 1 | -0.1 | 10 | -2
O=C(Cn1cnc2cc([N+](=O)[O-])ccc2c1=O)Nc1ccc2c(c1)OCO2 | -25 | -19 | 6 | 0.0 | -5 | 14
O=C(c1ccco1)N1CCN(c2cccc(Cl)c2)CC1 | 6 | -3 | -14 | 0.9 | -3 | 21
Cc1ccc(-c2nc(Nc3cccc(O)c3)c3ccccc3n2)cc1 | -3 | 1 | -12 | x | -1 | x
COc1ccc(Cl)cc1NC(=O)CN(C)C(=O)C12CC3CC(CC(Cl)(C3)C1)C2 | -1 | 21 | 9 | 0.0 | -24 | -3
Cc1nn(C(=O)CCCn2cc([N+](=O)[O-])cn2)c(C)c1Cl | -2 | 0 | 0 | 1.4 | 4 | -12
Cc1cccc(C)c1OCC(=O)Nc1ccccc1C(F)(F)F | 23 | 12 | 5 | 2.1 | 2 | 26
O=C(CCn1nnc2ccccc21)Nc1nnc(COc2ccc(F)cc2)s1 | 10 | -3 | 1 | 0.1 | 1 | 14
Cn1cc(/C=C(\NC(=O)c2ccccc2Cl)C(=O)NCCN2CCOCC2)c2ccccc21 | x | 14 | u | 0.0 | -2 | -9
CN(C)CCNC(=O)CN1C(=O)CSc2ccc(S(=O)(=O)N3CCCCC3)cc21 | 2 | 3 | 0 | -0.2 | -2 | 7
CC1CN(C(=O)C(C)N2C(=O)c3ccccc3C2=O)CC(C)O1 (configuration not stated) | 6 | 5 | -10 | 2.0 | 6 | -19
Cc1ccc(NC(=O)CCc2nc3sc4c(c3c(=O)[nH]2)CCCC4)nc1 | -5 | -18 | 6 | 0.6 | -3 | 21
COc1cccc(C(=O)N2CCC(O)(c3cccnc3)CC2)c1 | 0 | -7 | 2 | 0.1 | -7 | 21
CCC(=O)c1ccc(OCC(=O)OCC(=O)NCCCc2ccccc2)cc1 | 2 | 2 | -7 | -0.6 | 4 | -9
Cc1cc(C)cc(C(=O)NCC(=O)OCc2cc([N+](=O)[O-])cc3c2OCOC3)c1 | 1 | 0 | 7 | -0.7 | -5 | 1
NC1C2CN(c3nc4c(cc3F)c(=O)c(C(=O)O)cn4-c3ccc(F)cc3F)CC12 (configuration not stated) | 12 | -3 | 1 | -0.9 | -6 | 6
CCOC(=O)C1=C(C)NC(C)=C(C(=O)OCC)C1c1cc2ccc(C)cc2[nH]c1=O | 1 | -9 | -9 | 0.1 | -16 | 0
O=C(COc1ccc2ccccc2c1)NNC(=O)c1cccs1 | 0 | -6 | 11 | 2.0 | -9 | 7
OC(CNCc1ccco1)Cn1c2ccc(Br)cc2c2cc(Br)ccc21 (configuration not stated) | -13 | -10 | 9 | -0.3 | -4 | -13
COc1cc(C(=O)N(CCCO)Cc2cc3ccc(C)c(C)c3[nH]c2=O)cc(OC)c1OC | 7 | 2 | 14 | -0.5 | -7 | -15
Oc1ccc(-c2csc(-c3cccnc3)n2)c(O)c1 | 2 | -20 | -2 | 2.0 | -16 | 0
CCCOc1ccc(C(CC(=O)O)NC(=O)Cc2ccccc2)cc1 (configuration not stated) | -18 | -2 | 17 | 1.0 | -1 | 7
O=C1CN(C(=O)COc2ccc(Br)cc2F)c2ccccc2N1 | 0 | 7 | 1 | 1.7 | -16 | 2
Cc1cc(C(F)(F)F)n(-c2nc(C(=O)O)cs2)n1 | 1 | 2 | 4 | 0.7 | -4 | -3
Cc1c(NC(=O)Nc2ccccc2Cl)c(=O)n(-c2ccccc2)n1C | -16 | -2 | -3 | 1.2 | -13 | -19
COC(=O)/C(=N/Nc1ccccc1C)Sc1nnc(C(O)c2ccccc2)n1-c1ccccc1 (configuration not stated) | -8 | -1 | 3 | 0.7 | -5 | 4
COc1ccc(-n2c(CNC(=O)c3cc(OC)c(OC)c(OC)c3)n[nH]c2=S)cc1 | 7 | -1 | 7 | 0.5 | -6 | 13
CCC(=O)N1CCC1(C)C(=O)Nc1cccc(OC)c1OC (configuration not stated) | 8 | 10 | x | 2.5 | -8 | x

Profiles, looked up by structure:
COc1cc(C(=O)N(CCCO)Cc2cc3ccc(C)c(C)c3[nH]c2=O)cc(OC)c1OC is entered as CtBP-E1A inh = 7; Six1-Eya2 inh = 2; TRPV1 potentiator = 14; TRPML1 agonist = -0.5; D2 potentiator = -7; TRPML1 inh = -15
Cc1c(NC(=O)Nc2ccccc2Cl)c(=O)n(-c2ccccc2)n1C is entered as CtBP-E1A inh = -16; Six1-Eya2 inh = -2; TRPV1 potentiator = -3; TRPML1 agonist = 1.2; D2 potentiator = -13; TRPML1 inh = -19
COc1ccc(-n2c(CNC(=O)c3cc(OC)c(OC)c(OC)c3)n[nH]c2=S)cc1 is entered as CtBP-E1A inh = 7; Six1-Eya2 inh = -1; TRPV1 potentiator = 7; TRPML1 agonist = 0.5; D2 potentiator = -6; TRPML1 inh = 13

Quoted from the listing:
TRPML1 inh result of COc1ccccc1NC(=O)COC(=O)C12CC3CC(CC(Br)(C3)C1)C2 reads 57
TRPV1 potentiator result of Cn1cccc1C(=O)C(=O)Nc1cc(Cl)cc(Cl)c1 reads 5

Following part
SMILES | CtBP-E1A inh | Six1-Eya2 inh | TRPV1 potentiator | TRPML1 agonist | D2 potentiator | TRPML1 inh
O=C(/C=C/[C@H]1O[C@@H](n2ccc(=O)[nH]c2=O)[C@H](O)[C@@H]1O)N1CCN(Cc2ccc(F)cc2)CC1 | 1 | 4 | x | -0.6 | 2 | 30
CNC(=S)N/N=C1\C(=O)c2cccc3cccc1c23 | -16 | -12 | 12 | -0.9 | -31 | -11
COc1ccc(OC)c(CNC(=O)CCn2nc(C)c3c(C)n(-c4ccccc4)nc3c2=O)c1 | 1 | 4 | -12 | 1.0 | -6 | 21
CN(C)CCCN1C(=O)C(O)=C(C(=O)c2cc3ccccc3o2)C1c1ccccc1 (configuration not stated) | 5 | -2 | 0 | -0.7 | 8 | 4
CC(Sc1ccc(Cl)cc1)C(=O)NCc1cccnc1 (configuration not stated) | 2 | -2 | 0 | 3.7 | 12 | 8
O=S(=O)(NCCSc1ccccn1)c1ccc(Br)cc1 | -2 | 0 | 10 | -0.6 | -9 | 5
CC(C)OC(=O)c1cc(NC(=O)C2C3C=CC(O3)C2C(=O)O)cc(C(=O)OC(C)C)c1 (configuration not stated) | -22 | 5 | -24 | 3.9 | 4 | 41
CC1(C)CCCC2=C1CC1C(=O)N(O)C(=O)C1C2 (configuration not stated) | 1 | 11 | -2 | 0.2 | -2 | 8
CCOc1ccc(NS(=O)(=O)c2cnc(Cl)c(Cl)c2)cc1 | 0 | 0 | 1 | 1.2 | 0 | 11

Compound activity as filed in PubChem.
